D2 ag – Beta-Arrestin HTS for Positive Allosteric Modulators of the Human D2 Dopamine Receptor: Agonists; DiscoveRx PathHunter D2 beta-arrestin, luminescence, 90 min; 100% = 57 uM dopamine signal; activation, % (test concentration not listed); actives 0.084% (n = 360,000); in the data active = activation above about 40%; inconclusive = about 15% to 40%; inactive = below about 15%; note: compound concentration not given in the record; the text of the record calls up to 30% inactive
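Agonist mode: compounds alone added to overnight-plated D2 PathHunter cells for 90 min at 37 C, with 57 uM final dopamine (EC100) defining full response. Beta-arrestin recruitment detected by chemiluminescent reagent, read after 1 h at ambient temperature.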
CtBP-E1A inh – qHTS Assay for Inhibitors of the CtBP/E1A Interaction. actives 0.49% (n = 340,000). AID 651724, 2012. activity change, % (no concentration beside the values). CtBP / adenovirus E1A interaction (AlphaScreen). AlphaScreen GST-E1A/His-CtBP binding, 1536-well; hits give low values; control for the full effect not named in the record; in the data active means activity change below about -65%; inconclusive means about -30% to -65%; inactive means above about -30%; note: % is set by controls: 0 for no effect and ±100 for the full control effect; compound concentration not given in the record
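Homogeneous bead-based format: GST-tagged E1A captured on glutathione donor beads, His-tagged CtBP on nickel acceptor beads; compounds precede bead addition by 2 h at 37 °C.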
PINK1 expr mod – A Quantitative High throughput Screen to Identify Chemical Modulators of PINK1 Expression; AID 624263, 2012; Potency, µM (highest dose often 76.6 µM), for inactives: at the top dose activation (PINK1 increase), actives largely listed as activators; PINK1 immunofluorescence, high-content cytometry, 24 h; actives 0.2% (n = 410,000); active = well fitted activation curve with a large enough effect; inconclusive = small, poorly fitted or top-dose-only effect; inactive = flat fitted curve, though single readings scatter; cell line not stated here;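 note: potency is the fitted concentration of half-maximal effect; % of control where 0% means no effect; nearly all actives have a fitted effect of over 65% in size; a mitochondrial uncoupler was the plate control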
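Stable cell line treated 24 h with compounds at 5 concentrations (CCCP controls), then fixed and immunostained for PINK1 plus nuclear and cell stains; PINK1 immunofluorescence quantified by laser-scanning microplate cytometry.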
TRPML1 inh – qHTS for Inhibitors of the Human Mucolipin Transient Receptor Potential 1 (TRPML1); Mucolipin-1 (Homo sapiens), Q9GZU1; TRPML1-inducible cells, Ca2+ dye fluorescence, FDSS; hits give low values; inhibition of EC80 agonist-evoked calcium signal; activity change, negative = inhibition, % (test concentration not listed); actives 0.02% (n = 390,000); in the data active means activity change below about -50%; inconclusive means about -30% to -50%; inactive means above about -30%;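 note: stimulus is agonist 54-4 at its EC80 concentration; % is set by controls: 0 for no effect and ±100 for the full control effect; compound concentration not given in the record; the text of the record puts the active cut at -80%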
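Calcium fluorescence in TRPML1-DL cells induced overnight with Tet: a 110 s read after compound pin addition, then a 110 s antagonist read after challenge with 54-4 at 4 uM final (EC80).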
TRPML1 agonist – qHTS for Agonists of the Human Mucolipin Transient Receptor Potential 1 (TRPML1); TRPML1-expressing cells, Ca2+ dye fluorescence, FDSS; host cell line not named in the record; reference of the full effect not given here; actives 0.12% (n = 410,000); activation, % (no concentration beside the values); Mucolipin-1 (Homo sapiens), Q9GZU1; in the data active = activation above about 50%; inconclusive = about 30% to 50%; inactive = below about 30%; note: 0% is about no effect; the text of the record puts the active cut at 80%
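Kinetic FDSS Ca2+ read in Tet-induced TRPML1-DL cells (ABD Ca8 dye plus quencher, 45-90 min RT loading): baseline, then compound, then 110 s agonist window; EC80 agonist 54-4 at 4uM final added afterwards for a 110 s antagonist window.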
Six1-Eya2 blk – qHTS Assay for Inhibitors of the Six1/Eya2 Interaction. Homeobox protein SIX1 (Homo sapiens) + Protein phosphatase EYA2 (Homo sapiens), …. AlphaScreen GST-Six1/His-Eya2 binding, biochemical; hits give low values; control for the full effect not named in the record. activity change, % (test concentration not listed). actives 0.56% (n = 360,000); in the data active = activity change below about -65%; inconclusive = about -30% to -65%; inactive = above about -30%; note: % is set by controls: 0 for no effect and ±100 for the full control effect; compound concentration not given in the record
Target sequence (O00167 whole entry, looked up): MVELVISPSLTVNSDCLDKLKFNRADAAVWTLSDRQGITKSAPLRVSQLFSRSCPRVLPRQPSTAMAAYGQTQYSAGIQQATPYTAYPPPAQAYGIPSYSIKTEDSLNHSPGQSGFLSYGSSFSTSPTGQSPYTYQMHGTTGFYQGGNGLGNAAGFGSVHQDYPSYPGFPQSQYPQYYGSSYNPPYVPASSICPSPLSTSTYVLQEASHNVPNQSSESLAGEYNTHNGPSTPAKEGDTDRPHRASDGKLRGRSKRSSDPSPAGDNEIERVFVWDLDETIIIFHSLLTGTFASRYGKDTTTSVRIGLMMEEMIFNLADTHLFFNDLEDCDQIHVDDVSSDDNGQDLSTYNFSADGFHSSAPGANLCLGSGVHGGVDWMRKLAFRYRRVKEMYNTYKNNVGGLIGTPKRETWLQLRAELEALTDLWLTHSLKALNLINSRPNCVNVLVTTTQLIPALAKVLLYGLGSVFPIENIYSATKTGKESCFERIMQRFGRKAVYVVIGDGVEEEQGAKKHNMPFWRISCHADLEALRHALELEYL
Target sequence (Q15475 whole entry, looked up): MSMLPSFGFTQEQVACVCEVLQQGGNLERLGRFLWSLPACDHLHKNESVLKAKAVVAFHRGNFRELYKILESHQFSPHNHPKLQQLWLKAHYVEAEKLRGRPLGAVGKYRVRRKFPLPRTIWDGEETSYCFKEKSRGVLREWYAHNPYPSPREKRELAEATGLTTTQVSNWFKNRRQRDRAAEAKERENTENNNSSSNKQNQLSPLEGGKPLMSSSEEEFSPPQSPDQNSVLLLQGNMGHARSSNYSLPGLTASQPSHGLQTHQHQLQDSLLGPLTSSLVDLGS
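Six1/Eya2 binding was read as AlphaScreen signal after compounds were pinned into GST-Six1 plus His-tagged Eya2 (5X stock 250/500 nM) in pH 8.0 Tris/NaCl/TCEP buffer, beads added, then incubated 1 h, 37 C, dark.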
Active calls of the source: *; ? = inconclusive; nt = no result given; & = joins results of further samples; [ ] = another dose, or the depositor's remark.

SMILES	D2 ag	CtBP-E1A inh	PINK1 expr mod	TRPML1 inh	TRPML1 agonist	Six1-Eya2 blk
COc1ccc(/C=C/C(=O)O)cc1S(=O)(=O)NCC1CCCO1 (stereo not drawn)	-3.3	-2	0.5%	0	-0.2	-1
Cc1cc(C)cc(NC2=NCC(=O)N2Cc2ccccc2)c1	0.9	3	-0.9%	-12	-0.3	4
O=C(COc1ccc2c(c1)oc(=O)c1ccccc12)NCC1CCC(C(=O)O)CC1 (stereo not drawn)	-2.6	-10	2.0%	nt	nt	-12
[O-][n+]1c(/C=C/c2ccccc2)ccc2ccccc21	-6.3	-2	3.5%	-7	1.2	-6
Cc1cnc(NC(=O)c2c(Cl)cnn2C)s1	2.0	7	-0.4%	11	0.0	2
COc1ccc(/C=C/C(=O)OCC(=O)N2CCCCCC2)c(OC)c1	-4.5	0	1.4%	-7	1.0	-6
CCc1ccccc1NC(=O)Cc1cn(C)c2ccccc12	-0.7	5	2.8%&0.5%	6&6	1.1&-1.7	0
CC(C)=CC(=O)Nc1ccccc1C(N)=O	-3.7	-23	-2.0%[38.3 µM]	70	-0.3	-10
O=C(/C=C/c1ccccc1)c1ccc2ccccc2c1	-1.4	-5	-3.6%	-10	0.2	-7
O=S(=O)(NCC1CCCO1)c1ccc(Cl)nc1 (stereo not drawn)	3.0	10	4.3%	-1	-0.8	3
COc1ccc(C(=O)C2CCCN(Cc3c(F)ccc(F)c3F)C2)c(OC)c1 (stereo not drawn)	3.5	-7	3.1%	-5	-0.5	-4
CC(C)N(C(=O)CSc1nnc(Cc2csc(Nc3ccccc3)n2)o1)C(C)C	4.3	24	-0.9%	-9	3.9	5
Cc1ccccc1NC(=O)CN1C(=O)S/C(=C\c2ccc(-c3cccc(C(=O)O)c3C)o2)C1=O	5.5	nt	-1.1%	-4	1.0	-1
CC(C)NC(=O)c1ccc(COc2ccc(C(C)(C)C)cc2)o1	1.8	-8	0.7%	-5	6.0	6
CC(C)CCNC(=O)CCCn1c(=O)[nH]c2ccc(Br)cc2c1=O	-3.6	4	3.1%	-5	-0.1	0

Not a retest: entries from further up.
SMILES	D2 ag	CtBP-E1A inh	PINK1 expr mod	TRPML1 inh	TRPML1 agonist	Six1-Eya2 blk
COc1ccc(/C=C/C(=O)O)cc1S(=O)(=O)NCC1CCCO1 (stereo not drawn)	-3.3	-2	0.5%	0	-0.2	-1
Cc1cc(C)cc(NC2=NCC(=O)N2Cc2ccccc2)c1	0.9	3	-0.9%	-12	-0.3	4
O=C(COc1ccc2c(c1)oc(=O)c1ccccc12)NCC1CCC(C(=O)O)CC1 (stereo not drawn)	-2.6	-10	2.0%	nt	nt	-12
[O-][n+]1c(/C=C/c2ccccc2)ccc2ccccc21	-6.3	-2	3.5%	-7	1.2	-6
Cc1cnc(NC(=O)c2c(Cl)cnn2C)s1	2.0	7	-0.4%	11	0.0	2
COc1ccc(/C=C/C(=O)OCC(=O)N2CCCCCC2)c(OC)c1	-4.5	0	1.4%	-7	1.0	-6
CCc1ccccc1NC(=O)Cc1cn(C)c2ccccc12	-0.7	5	2.8%&0.5%	6&6	1.1&-1.7	0
CC(C)=CC(=O)Nc1ccccc1C(N)=O	-3.7	-23	-2.0%[38.3 µM]	70	-0.3	-10
O=C(/C=C/c1ccccc1)c1ccc2ccccc2c1	-1.4	-5	-3.6%	-10	0.2	-7
O=S(=O)(NCC1CCCO1)c1ccc(Cl)nc1 (stereo not drawn)	3.0	10	4.3%	-1	-0.8	3
COc1ccc(C(=O)C2CCCN(Cc3c(F)ccc(F)c3F)C2)c(OC)c1 (stereo not drawn)	3.5	-7	3.1%	-5	-0.5	-4
CC(C)N(C(=O)CSc1nnc(Cc2csc(Nc3ccccc3)n2)o1)C(C)C	4.3	24	-0.9%	-9	3.9	5
Cc1ccccc1NC(=O)CN1C(=O)S/C(=C\c2ccc(-c3cccc(C(=O)O)c3C)o2)C1=O	5.5	nt	-1.1%	-4	1.0	-1
CC(C)NC(=O)c1ccc(COc2ccc(C(C)(C)C)cc2)o1	1.8	-8	0.7%	-5	6.0	6

(continued)
SMILES	D2 ag	CtBP-E1A inh	PINK1 expr mod	TRPML1 inh	TRPML1 agonist	Six1-Eya2 blk
COc1cc(NC(=O)c2ccccc2)c(OC)cc1NC(=O)Cc1ccccc1	8.0	-8	4.8%	13	0.3	?
COc1ccc2c(c1)CC(C(=O)Nc1cc(Cl)ccc1C)CO2 (stereo not drawn)	nt	nt	0.9%	21	2.3	nt
CCOC(=O)c1c(NC(=O)CSc2nnc(C)s2)sc2c1CCCCC2	-2.1	-3	-0.3%	21	2.1	-7
O=[N+]([O-])c1ccc(C2CCCC/C2=N/OCc2ccc(F)cc2)c([N+](=O)[O-])c1 (stereo not drawn)	0.4	?	nt	28	-0.3	?
CCN(CC)S(=O)(=O)c1cccc(NC(=O)COC(=O)c2n[nH]c(=O)c3ccccc23)c1	-0.3	-13	-0.3%	35	3.0	-10
COC(=O)[C@]12CCCCC=C1N(CCC1=CCCCC1)C(=O)[C@H](CC(=O)NCc1cccs1)C2	nt	-27	1.0%	nt	0.0	-1
CC(=O)N1N=C(c2ccc(NS(=O)(=O)c3ccccc3)cc2)CC1c1ccco1 (stereo not drawn)	-4.8	1	18%	24	-0.1	-2
CCCOc1ccccc1C(=O)N(Cc1cccc(Br)c1)C1CCS(=O)(=O)C1 (stereo not drawn)	2.0	4	-0.6%	-1	-0.9	-1
COc1ccc(S(=O)(=O)N2CCC(C(=O)NCCC(=O)NCCc3cccc(F)c3)CC2)cc1	0.5	3	1.2%	7	-0.7	-2
Fc1ccc(-n2cc(-c3ccccc3)c3c(NCCc4ccccc4)ncnc32)cc1	nt	nt	0.0%	65	0.9	nt
Cc1ccc2c(ccc(=S)n2C)c1	-4.2	-11	1.2%	3	0.1	-11
Cc1ccc(CN2CC(C(=O)N3CCN(S(=O)(=O)c4ccccc4)CC3)CC2=O)cc1 (stereo not drawn)	-2.7	3	1.3%	-6	-0.4	5
CCOC(=O)C1CCN(C(=O)N2CCOCC2)CC1	-3.8	4	0.6%	-4	-0.4	3
CNC(=O)c1c(Br)cnn1-c1ccc(C)cc1	-2.7	4	2.5%	0	-1.1	4
CC(=O)N1CCC(N2CCN(Cc3ccc(C)cc3)C(CCO)C2)CC1 (stereo not drawn)	-2.0	1	-2.1%	11	0.5	2
CCCn1c2ccccc2c2cnn(CC(=O)NCCN(C)C)c(=O)c21	-2.3	3	-0.5%	-9	1.3	4
CSCCC(NS(=O)(=O)c1ccc(Cl)cc1)C(=O)OCC(=O)N(C(C)C)C(C)C (stereo not drawn)	-0.2	-3	1.1%	-9	-0.3	3
COc1ccc(C(=O)NNC(=S)NC(=O)c2cccs2)cc1	6.6	-5	-0.2%	-15	4.0	-6
Clc1ccc(OCc2nn3c(-c4ccccc4)nnc3s2)c(Cl)c1	-0.3	0	20%[38.3 µM]	22	0.9	4
CCN(CC)c1ccc(C=Nc2ccccc2)c(O)c1	0.4	-1	0.5%	-7	0.8	-10
CCCc1nn2c(=O)cc(CSCC(=O)Nc3ccccc3OC)nc2s1	0.2	0	-1.8%	-1	-0.7	3
COCCCNC(=O)CSc1nc(-c2cccc(F)c2)[nH]c1-c1ccccc1	nt	nt	0.9%	-8	1.9	nt
CCC(C)NC(=O)C(Cc1ccccc1)NS(=O)(=O)c1ccc2c(c1)CCC(=O)N2 (stereo not drawn)	-4.2	2	-0.5%	-4	-0.3	0
CN(C)C(CNC(=O)CSc1nc2sc3c(c2c(=O)n1C)CCCC3)c1ccccc1 (stereo not drawn)	-1.3	-29	-0.6%	-3	0.8	-5
COc1cccc(-c2noc(COc3ccccc3Cl)n2)c1	nt	nt	-0.6%	-8	1.2	nt
Cc1ccc(C(=O)NCc2ccco2)cc1[N+](=O)[O-]	-4.3	2	0.5%	-5	-0.9	-2
COCCN(C(=S)Nc1ccc(C)cc1C)C(C)c1cccs1 (stereo not drawn)	0.4	nt	-0.2%	7	-0.9	7
O=C(NCc1ccncc1)C1Cc2c(-c3ccc(Cl)cc3)ccnc2O1 (stereo not drawn)	-3.4	0	4.4%	5	-0.2	23
Cc1ccc(C)c(S(=O)(=O)N2CCN(C(=O)c3ccc(C)s3)CC2)c1	-1.4	-3	0.7%	-15	-0.3	3
COC(=O)c1c(C)oc2ccc(NS(=O)(=O)c3cccs3)cc12	-0.6	-4	nt	13	0.2	-7
O=C(CC12CC3CC(CC(C3)C1)C2)Nc1ccc2c(c1)COC2=O	-2.1	-19	-3.6%	6	-0.9	-28
O=C(c1ccco1)N1CCN(Cc2ccccc2Br)CC1	?	nt	1.4%	-24	0.5	16
COc1ccc(-c2nn(-c3ccccc3)cc2CO)cc1OC	-2.2	-3	3.4%	-5	-1.1	-16
COc1cccc(C2=C(C(C)=O)Sc3nncn3N2C(C)=O)c1	nt	nt	-0.3%	-13	1.1	nt
O=c1oc2ccccc2c(O)c1CN1CCCCC1	-2.8	0	nt	-12	0.3	-1
Cc1ccc(-c2nnnn2CS(=O)(=O)c2ccccc2)cc1	1.1	0	0.3%	-6	-0.8	8
CC(=O)N1CCN(c2ccc(NC(=O)c3cc4ccccc4o3)cc2)CC1	12	nt	0.0%	-2	-0.9	-6
Cc1cc(S(=O)(=O)N(Cc2ccc3c(c2)OCO3)CC2CCCO2)ccc1-n1cnnn1 (stereo not drawn)	1.7	-5	-0.9%	8	0.3	0
CC(C(=O)OCC(=O)Nc1ccccc1OC(F)F)N1C(=O)C2CC=CCC2C1=O (stereo not drawn)	-1.8	1	-0.4%	-8	-0.6	4
COC(=O)COc1ccc(S(=O)(=O)Nc2ccc(NC(C)=O)cc2)cc1	3.1	9	nt	-2	0.5	5
CCOc1ccccc1NC(=O)C1=C(C)NC(=O)NC1c1cccc(OC)c1OC (stereo not drawn)	-0.2	3	4.6%[38.3 µM]	2	0.3	2
